Compound activity (PubChem BioAssay)
BasE inh – inhibitors of Acinetobacter baumannii siderophore enzyme BasE; purified BasE, fluorescence polarization binding displacement; inhibition, % (concentration not given with the values); actives 0.1% (n = 84,000);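 active = both replicates above 25% with normal brightness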;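 also: 0% = negative plate control signal and 100% = positive plate control signal; stock transfer was 100 nL into about 30 µL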
LANA-nucl inh – LANA-nucleosome interaction inhibition; AID 720717; z-score (concentration not given with the values); actives 0.3% (n = 51,000); FITC-LANA1-23 / chicken nucleosome fluorescence polarization; active compounds read low;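 active = both repeat wells score below -2 in polarization z-score versus plate sample wells, excluding overly bright wells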;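 also: 100 nL library stock added to about 30 µL; numbers are from one replicate; some results filed as inactive read as strong as hits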
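Assay system: purified chicken nucleosomes with FITC-labelled LANA N-terminal peptide (1-23) / Probe or stimulus: 50 nM FITC-LANA1-23 probe / Compound dosing: pin-transferred compound, 100 nL / Times: compound with peptide–nucleosome mix 10–45 min at room temperature / Technique: fluorescence polarization, 480 nm excitation, 535 nm parallel and perpendicular emission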
Active calls of the source: *; . = no result given; & = joins results of further samples. Some of the compounds tested; rates above refer to the full screens.

SMILES	BasE inh	LANA-nucl inh
CCCCNC(=O)c1ccc(CS(=O)(=O)c2ccc(C)cc2)o1	0.1	0.385
CN(C(=O)C12CCC(C)(C(=O)O1)C2(C)C)c1ccccc1 (stereo unspecified)	-0.3	0.143
CCOC(=O)/C=C1\SCC(=O)N1CC(=O)Nc1cccc(C)c1C	-2.2	.
Fc1ccc(CSc2nnc(-c3ccco3)o2)c(Cl)c1	-2.2	.
Cc1[nH]c(SCC(=O)N2CCN(C(=O)c3ccco3)CC2)nc1Cc1ccccc1	0.2	.
CC(C)(C)c1cc(C(=O)NC2CC2)n(Cc2ccc(F)cc2)n1	0.6	-0.898
Cc1onc2c1C(=O)CC(C)(C)C2	2.5	-0.279
CN1CCc2nc3ccccc3c(C(=O)OCC(=O)NCc3ccccc3)c2C1	1.9	.
CCn1cc(S(=O)(=O)N2CCN(Cc3ccccc3)CC2)cn1	2.2	-0.871
CCOc1ccc(C2CC(=O)N3CN(CCc4ccccc4)CSC3=C2C#N)cc1 (stereo unspecified)	-2.3	0.821
CCC(C)NC(=O)c1cnn2c(C)cc(C)nc12 (stereo unspecified)	-1.9	0.0565
CCOC(=O)/C=C1/CSc2ccccc2N1	-1.9	0.169
O=C(O)c1nn(CC2CCCCC2)c(=O)c2ccccc12	0.9	.
CC(C)COC(=O)Nc1cccnc1	3.1	.
N#CSCOC(=O)Oc1ccc2ccccc2c1	3.9	-0.241
CC(=O)N1CC(C(=O)N2CCN(S(=O)(=O)c3ccccc3C#N)CC2)Oc2ccccc21 (stereo unspecified)	0.3	.
O=C(Nc1nc2ccccc2[nH]1)C1CCCC1	-5.1	.
Cc1ccccc1CSCC(=O)Nc1ccc(O)cc1C(=O)O	2.9	0.024
CCCNC(=O)CCc1nnc2ccc(N3CCC(C)CC3)nn12	0.8	2.29
C/C(=N/NC(=O)CSc1nc2ccccc2[nH]1)c1ccncc1	0.7	0.407
O=C(Nc1cc2c(ccc3ccccc32)oc1=O)c1ccccc1	2.4	.
Cc1nn(-c2ccccc2)c2c1C(C(F)(F)F)(C(F)(F)F)OC(c1ccco1)=N2	-1.5	.
CC(C)(C)NC[C@@H](O)COc1cccc2c1CCCC2=O	0.3	0.556
CN(CC(=O)Nc1ccccc1Cl)CC1COc2ccccc2O1 (stereo unspecified)	1.0	.
OCC#CCSc1ncnn1-c1ccccc1	3.5	0.254
Further structures:
SMILES	BasE inh	LANA-nucl inh
Cc1nnc(SCCOc2ccccc2Cl)[nH]c1=O	1.4	.
COC(=O)c1cn(NC(=O)CSc2ccncc2)c(=O)c2ccccc12	-1.8	0.173
N#CC1=C(N)OC2=C(C(=O)CCC2)C12CCCC2	-1.7	0.062
Cc1nnsc1C(=O)NCc1ccc(F)cc1	-1.4	-0.399
O=C(O)c1ccccc1C1Nc2ccccc2S(=O)(=O)N1Cc1ccccc1 (stereo unspecified)	-1.4	.
CCOC(=O)c1cc(-c2ccc(S(=O)(=O)N3CCCCC3)s2)on1	1.9	-0.104
CCc1ccc(/C=N\N2CCN(c3ccccc3)CC2)cc1	1.7	0.213
Cc1cc(S(=O)(=O)NN(C)c2cccc(Cl)c2C#N)cc(C)c1F	-0.2	.
CC(OC(=O)C1=COCCO1)C(=O)Nc1ccccc1C#N (stereo unspecified)	1.0	.
O=S(=O)(Cc1noc(-c2ccno2)n1)Cc1ccco1	0.6	0.276
Cc1ccc(C(=O)CSC2=NCCCCC2)cc1	-0.4	.
CCS(=O)(=O)c1ccc2oc(SCC(=O)Nc3ccc(OC)cc3OC)nc2c1	0.7	.
CCNc1cc(N2CCN(Cc3ccc(OC)c(OC)c3OC)CC2)c2noc3c2c1C(=O)c1ccccc1-3	-24.7	-0.298
O=C(Nc1ccc2c(c1)CCC2)c1ccccn1	-1.9	.
C=C1c2ccccc2NC(=S)N1C	2.9	.
CCOC(=O)C1=NN(c2ccccc2)C(=O)/C1=C\c1ccc(N(C)C)cc1	-0.3	0.0225
Cc1cccc(CN2CCCC2CO)c1 (stereo unspecified)	-1.1	0.123
NC(=O)NC(=O)Cc1nc2ccccc2s1	-1.4	.
O=C(CSc1nc2ccccc2c(=O)n1Cc1ccco1)N1CCc2ccccc21	-0.2	.
COc1ccc2nc3oc(C(=O)Nc4cc(Cl)c(OC)cc4OC)cc3cc2c1	0.9	-0.52
COc1cccc2c1Oc1ncccc1NC2	-0.1	1.07
CC(=O)N1CCN(C(=S)c2ccc(-c3cccc(Cl)c3Cl)o2)CC1	-3.0	0.134
NC(=O)N/N=c1/oc2ccccc2cc1-c1nc2ccccc2[nH]1	-5.8	0.922
O=C(Nc1ccc(N2CCOCC2)cc1)OCc1ccccc1	0.8	-0.181
COc1ccc(Cn2c(=O)c3cccnc3n(CC(=O)Nc3ccccc3OC)c2=O)cc1	0.8	-0.835

3 of the compounds above, with values under each structure.
Each structure is followed by: BasE inh, LANA-nucl inh
CCS(=O)(=O)c1ccc2oc(SCC(=O)Nc3ccc(OC)cc3OC)nc2c1
    0.7, .
CCOC(=O)C1=NN(c2ccccc2)C(=O)/C1=C\c1ccc(N(C)C)cc1
    -0.3, 0.0225
COc1ccc(Cn2c(=O)c3cccnc3n(CC(=O)Nc3ccccc3OC)c2=O)cc1
    0.8, -0.835

(cont.)
SMILES	BasE inh	LANA-nucl inh
O=C(NCCCSc1ccccn1)Nc1ncccn1	1.4	0.342
Cc1ccc(NC(=O)C(NCCCN2CCCC2=O)c2ccccc2)cc1 (stereo unspecified)	0.1	.
CCCc1nc(C(C)(C)O)c(C(=O)OCc2oc(=O)oc2C)n1Cc1ccc(-c2ccccc2-c2nn[nH]n2)cc1	0.1	-0.136&0.242&-0.347
O=C(CSc1ccccn1)Nc1cccc(F)c1	6.2	-0.719
CCCC1CCC(c2ccc(OC(=O)c3cccs3)cc2)CC1 (stereo unspecified)	-0.8	.
O=C1CC(c2ccco2)CC(O)=C1C=NCCN1CCNCC1 (stereo unspecified)	4.9	-0.383
O=S(=O)(Cc1ccc(Br)cc1F)c1cccs1	3.1	-0.487
O=C(NCc1ccccc1F)C1CC(=O)N(Cc2ccco2)C1 (stereo unspecified)	1.1	.
CCN(CC)S(=O)(=O)c1ccc(C(=O)C(C#N)c2nc3ccccc3c(=O)[nH]2)cc1 (stereo unspecified)	11.3	.
COCCOc1ccc(C(F)(F)F)cc1NC(=O)c1ccc2c(=O)n3c(nc2c1)CCC3	-4.9	.
COC(=O)c1cc(S(=O)(=O)Nc2ccsc2C(=O)OC)oc1C	2.2	-0.434
OC(c1cccc(C(F)(F)F)c1)c1nnc(-c2ccccc2)o1 (stereo unspecified)	-0.5	.
CCN=C1S/C(=C\c2cn(CC(=O)NCCOC)c3ccccc23)C(=O)N1CC	-2.0	1
Cc1nnc(SCC(=O)NCc2ccc(F)cc2)n(N)c1=O	1.6	-0.141
c1ccc(C[n+]2ccc(-c3nc4ccccc4s3)cc2)cc1	-2.0	.
N#Cc1nc(-c2ccc(Cl)cc2)oc1N1CCCC1	0.3	.
C(=Nc1ccccc1)c1ccc(N2CCOCC2)cc1	0.6	-0.276
CC(Nc1ncnc2c1oc1ccccc12)c1ccccc1 (stereo unspecified)	1.5	.
CC(C)(C)C1(OCSC#N)C(=O)N=CN=CN1Cc1ccccc1 (stereo unspecified)	0.5	.
CCn1c(SCC(=O)NC2CCCCC2)nnc1C(CO)NC(=O)c1ccccc1 (stereo unspecified)	0.1	-0.952
Cc1nnn(C23CC4CC(CC(C(=O)NCc5ccc6c(c5)OCO6)(C4)C2)C3)n1	1.2	0.0665
N#Cc1c(S/C=C(\O)c2cc3ccccc3o2)nc2c(c1C(F)(F)F)CCCC2	-1.3	-0.691
CCc1c(C)[nH]c(C)c1C(=O)OC	2.9	1.02
CC1(C)Cc2c(c(N3CCNCC3)[nH]c(=S)c2C#N)CO1	-1.4	-0.313
C=CCc1ccccc1Oc1cc(F)nc(N)n1	0.3	-0.956

One compound at a time, as listed above. Order of values: BasE inh, LANA-nucl inh
CC1(C)Cc2c(c(N3CCNCC3)[nH]c(=S)c2C#N)CO1 as listed: -1.4, -0.313
CCCC1CCC(c2ccc(OC(=O)c3cccs3)cc2)CC1 (stereo unspecified) as listed: -0.8, .
C(=Nc1ccccc1)c1ccc(N2CCOCC2)cc1 as listed: 0.6, -0.276
N#Cc1nc(-c2ccc(Cl)cc2)oc1N1CCCC1 as listed: 0.3, .
O=C(CSc1ccccn1)Nc1cccc(F)c1 as listed: 6.2, -0.719

Next section
SMILES	BasE inh	LANA-nucl inh
CC(c1ccccc1)n1cnc2c(oc3ccccc32)c1=O (stereo unspecified)	-7.0	-0.038
O=C(O)CCN1CCc2ccccc2C1c1ccncc1 (stereo unspecified)	0.9	-0.279
COC(=O)Cc1cc(=O)[nH]c(/N=C(\N)Nc2cccc(C)c2)n1	-0.3	0.421
CC(=O)Nc1ccc(NC(=O)CN(C)S(=O)(=O)c2ccc3c(c2)CCC(=O)N3)cc1	6.0	-0.893
C=CCSc1nnc(NC(=O)NC2CCCCC2)s1	-0.1	-0.784
CCC(N)Cn1nnn(-c2ccccc2)c1=O (stereo unspecified)	-0.1	-1.58
CN(C)CCNC(=O)Cn1cnc2ccccc2c1=O	1.8	.
N#Cc1c(N)sn(-c2ccccc2)c1=S	3.4	.
CC(=O)N1CCN(c2ccc(NC(=O)COc3ccc(Cl)c(C)c3)cc2)CC1	1.0	-0.096
Nc1[nH]c(=O)[nH]c(=O)c1N=Nc1cc(C(=O)O)cc(C(=O)O)c1	1.1	.
Cc1cccc(C2N=C(c3cnccn3)NN2)c1 (stereo unspecified)	0.6	-1.82
O=C(CN1CCCC1)N1c2ccccc2Sc2ccccc21	0.1	-0.976
Oc1ccc(C2(c3ccccc3O)CCCCC2)cc1	-0.3	.
Cc1ccnc2nc(C(=O)Nc3ccc(S(=O)(=O)N4CCCC4)cc3)nn12	1.1	.
CCCCN(C)C(=O)c1cnn(-c2ccc(C)cc2)c1-n1cccc1	-2.9	-0.268
CCOC(=O)c1oc2ccc(Br)cc2c1N	0.3	-0.424
CCCN(CC1CC1)C(=O)CSc1nc(N)cc(N)n1	-0.5	.
NC(=S)NN1N=C(c2ccccc2)CC1=O	0.9	-0.591
CN(Cc1ccc(-c2ccc(Cl)cc2)o1)C(=O)CC1Oc2ccccc2NC1=O (stereo unspecified)	-1.8	.
O=C(N=C1N=c2ccccc2=N1)c1ccc2c(O)n(Cc3ccncc3)c(O)c2c1	1.8	.
OC1CCN(Cc2ccc[nH]2)CC1	0.5	0.258
COC(=O)Cn1c(=O)c(C(=O)CSc2nnc(C)c(=O)n2N)c(N)n(Cc2ccccc2)c1=O	-1.1	.
C=CCN(C(C)=O)c1nc(C)c(Br)c(OC)n1	24.9	.
O=C(O)COCC(=O)Nc1ccc(N2CCOCC2)nc1N1CCOCC1	0.8	-0.145
CCC(C(=O)N1CCN(c2ccccn2)CC1)c1ccccc1 (stereo unspecified)	0.6	-0.215
(next part)
SMILES	BasE inh	LANA-nucl inh
O=C(Cc1nnc(-c2ccc(Br)cc2)o1)NC1CCCCCC1	-0.8	0.361
CC(C)OC(=O)c1cn(CCC#N)nc1-c1ccccc1	-0.5	0.69
O=c1[nH]nc(COc2ccccc2)c2nnn(Cc3ccccc3)c12	2.3	-0.734
Cc1ccc(S(=O)(=O)NC(=O)OCCn2ncc3ccccc3c2=O)cc1	1.5	.
O=C(O)CSc1nc2ccccc2c2nc3ccccc3n12	2.2	.
CCOC(=O)CSc1ccccn1	0.8	-1.33
C(=N\n1cnnc1)/c1ccc(N2CCOCC2)s1	-2.2	.
CC(C)(C)NCC(=O)Nc1ccccc1-c1ccccc1	-0.2	.
Cc1noc2ncnc(N3CCCCC3)c12	-0.8	.
Cc1ccccc1Nc1nc(N)nc(COC(=O)Cn2[nH]c(=O)c3ccccc3c2=O)n1	-1.4	.
COc1ccc(C2N(C)C(=O)c3ccccc3S2(=O)=O)cc1 (stereo unspecified)	.	-0.239
CCOc1ccc(N2CCc3c2nc2ccc(Br)cc2c3N)cc1	-5.5	.
CCc1ccccc1NC(=O)CNC1CCCCC1	-1.4	0.392
CN(CC(=O)Nc1ccc2c(c1)CCC2)Cc1cccc(F)c1	-4.3	.
Cc1ccc(NC(=O)c2cnc3sccn3c2=O)cc1	-1.9	.
O=S(=O)(NC1CC1)c1ccc2ccccc2c1	0.8	-0.358
COc1cc(OC)c2c(c1Cl)O[C@]1(C2=O)C(OC)CC(=O)C[C@H]1C (stereo partly specified)	-1.2	1.7
O=C(Nc1ccc2c(c1)OCO2)Nc1cnn(Cc2ccc(Br)cc2)c1	-2.1	-0.704
CC(C)c1ccc(C2C3CN(C(C)C)CC=C3C(C#N)=C(N)C2(C#N)C#N)cc1 (stereo unspecified)	2.1	0.912
O=C(CSc1ccc2c(c1)OCCO2)NCc1ccco1	3.6	.
O=c1oc(-c2cc3ccccc3o2)nc2sc3c(c12)CCCC3	1.7	.
C=C(C)CSc1n[nH]c(=S)s1	-0.3	.
O=C(C1CCN(c2ccc(-c3cccs3)nn2)CC1)N1CCc2ccccc21	-0.7	-1.12
CCS(=O)(=O)CCSc1nc2ccccc2o1	-0.4	-1.28
O=C(OCc1cc(=O)n2cc(Br)ccc2n1)C1=COCCO1	0.7	.

3 structures out of the list, sorted by molar mass, largest number first:
SMILES	BasE inh	LANA-nucl inh
O=C(C1CCN(c2ccc(-c3cccs3)nn2)CC1)N1CCc2ccccc21	-0.7	-1.12
CC(C)c1ccc(C2C3CN(C(C)C)CC=C3C(C#N)=C(N)C2(C#N)C#N)cc1 (stereo unspecified)	2.1	0.912
C=C(C)CSc1n[nH]c(=S)s1	-0.3	.

3 entries from above, sorted by their value in LANA-nucl inh, rising:
mol	LANA-nucl inh
CC(C)OC(=O)c1cn(CCC#N)nc1-c1ccccc1	0.69
CC(C)c1ccc(C2C3CN(C(C)C)CC=C3C(C#N)=C(N)C2(C#N)C#N)cc1 (stereo unspecified)	0.912
COc1cc(OC)c2c(c1Cl)O[C@]1(C2=O)C(OC)CC(=O)C[C@H]1C (stereo partly specified)	1.7
